Assay outcomes: PubChem BioAssay, NMMLSC
Bead autofluor: counter-screen for toxin protease inhibitors: compound fluorescence; compound autofluorescence counterscreen, microsphere flow cytometry; stronger effect = higher value; fluorescence intensity (test concentration not listed); 360,000 tested, 3.1% active; AID 624483;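 active = at least 3 SD above the mean of all compounds, about 16000 in these data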;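 note: 100 nL of 1 mM stock went into each well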
Active calls of the source: *. The list is partial; count on the stated rates, not on these rows.

#	structure	Bead autofluor
1	COC(=O)[C@H]1C[C@@]2(O)CN(S(=O)(=O)c3ccc(C)cc3)C[C@@]2(OC(=O)NCc2ccccc2)C[C@H]1C(=O)OC	2964
2	CCOC(=O)c1ccc(NC(=O)c2ncn3c2C(=O)N[C@H](C)C3)cc1	2850
3	COc1ccc(OC(=O)N(C)C[C@@H]2OCc3cn(nn3)CCCC(=O)N([C@@H](C)CO)C[C@H]2C)cc1	3965
4	N#Cc1cnn(-c2ccc([N+](=O)[O-])cc2[N+](=O)[O-])c1N	3639
5	Nc1nc2c(ncn2[C@@H]2O[C@H](CNS(=O)(=O)c3cccnc3)[C@@H](O)[C@H]2O)c(=O)[nH]1	6162
6	C=CCOc1cccc(C2C(C(=O)c3ccc(C)o3)=C(O)C(=O)N2CCN2CCOCC2)c1 (stereo unspecified)	3071
7	O=C(NCCN1CCOCC1)c1ccccc1N1C(=O)[C@@H]2Cc3c([nH]c4ccccc34)C(c3cccc(Cl)c3)N2C1=O (stereo partly specified)	5116
8	CCc1ccc(CCC(=O)N2CCN(S(=O)(=O)c3ccc(Br)cc3)CC2)cc1	2981
9	O=C(NCCNC(=O)c1cccnc1)c1cccnc1	5849
10	CNc1cncc(-c2ccc(F)cc2F)n1	3750
11	COc1ccc(CN2C[C@H]3CON(C)[C@H]3C[C@H]2c2ccc(-c3ccccc3)cc2)cc1	4464
12	Cc1ccc(-c2cnc3c(Nc4cccc(OC(F)(F)C(F)F)c4)nccn23)cc1	2881
13	CN(C)c1ccc(CN2CCC(C(=O)NC(c3ccc(Cl)cc3)c3cnccn3)CC2)cc1 (stereo unspecified)	3366
14	COc1cc2oc(=O)cc(CN3CCOCC3)c2cc1Cl	6479
15	Cn1c(NCCN2CCCC2)nc2cc(-c3cccc(C(F)(F)F)c3)sc2c1=O	3004
16	CC(=O)c1cccc(-c2ccnc3c2CC(C(=O)NCCC(F)(F)F)O3)c1 (stereo unspecified)	2907
17	CC(C)(C)n1nnnc1C(c1cc2ccccc2o1)N(Cc1ccccc1)Cc1ccccc1 (stereo unspecified)	6190
18	COc1ccc(C=CC(=O)c2ccc3cc(OC)c(OC)cc3c2)cc1OC	3805
19	O=C(NCC(=O)N1CCC(Cc2ccccc2)CC1)c1ccccc1F	2842
20	CC1(C)CC(=O)C2=C(C1)OC1=C(C(=O)CC(C)(C)C1)C2c1cccc([N+](=O)[O-])c1	3571

The last two entries of the section before open the next one.
#	structure	Bead autofluor
19	O=C(NCC(=O)N1CCC(Cc2ccccc2)CC1)c1ccccc1F	2842
20	CC1(C)CC(=O)C2=C(C1)OC1=C(C(=O)CC(C)(C)C1)C2c1cccc([N+](=O)[O-])c1	3571
21	O=C(c1ccc([N+](=O)[O-])cc1Cl)N1CCN(Cc2ccccc2)CC1	3858
22	COc1ccc(Cc2c(-c3ccc(F)cc3)nc3cc(C)c(Br)c(C)n23)c(C)c1	6076
23	COc1ccccc1C(=O)N1CCN(C(=O)[C@H]2O[C@@H](n3ccc(=O)[nH]c3=O)[C@H](O)[C@@H]2O)CC1	5752
24	COc1cc(-c2cnc3c(NC=O)cc(-c4cccnc4)cn23)cc(OC)c1OC	3106
25	CC(C)N=c1scc(-c2ccco2)n1/N=C/c1ccc(O)c(O)c1	8668
26	CCCCN1CCCCC1(C)C(=O)NCc1ccc2c(c1)OCO2 (stereo unspecified)	4073
27	COc1ccc(-c2ccc3c(c2)CN(c2cccc(Cl)c2)Cc2cnnn2-3)cc1	5293
28	O=C(NCc1ccc(F)cc1)C1CCN(S(=O)(=O)c2ccc(N3CCCC3=O)cc2)CC1	3594
29	O=C(OCc1cn([C@H]2CN(C(=O)C3CCCCC3)[C@@H](c3ccccc3)C[C@@H]2O)nn1)c1ccccc1	3982
30	CCOC(=O)Cn1ccc2cc(S(=O)(=O)N3CCCC3)ccc21	2929
31	NC(c1ccc(F)c(F)c1)c1nc(-c2cncnc2)cs1 (stereo unspecified)	2953
32	CC(C)(Cc1nc2ccccc2[nH]1)c1nc2ccccc2[nH]1	3858
33	Cc1cc(NC(=O)Nc2cccc(Cl)c2)no1	3336
34	CC1(C(=O)Nc2ccc3c(c2)OCO3)CCN1C(=O)Cc1cccc2ccccc12 (stereo unspecified)	3969
35	COc1ccc(C(=O)N2CCCCC2c2cc(C(=O)NCc3ccc(Cl)c(Cl)c3)no2)cc1 (stereo unspecified)	3371
36	CCOC1(OCC)OC(c2ccccc2)=C(C#N)C(C=Cc2ccccc2)C1(OCC)OCC (stereo unspecified)	3973
37	CCCCc1ccc(S(=O)(=O)NC(=O)C2(C)CCN2C(=O)CCc2cccs2)cc1 (stereo unspecified)	3425
38	C[C@@H]1COc2cc(N3CCC[C@@H]3CO)ccc2S(=O)(=O)N1	5521
39	COc1ccccc1Cc1c(-c2ccc(F)cc2)nc2ccc(Br)cn12	7972
40	CN1CCN(C(=O)c2cccc(-c3ccc4nncn4c3)c2)CC1	3406
41	COc1cccc(C(NC(C)=O)c2nc(-c3cccc(O)c3)cs2)c1 (stereo unspecified)	2980
42	Cc1ccc(S(=O)(=O)Nc2nc(CN3CCOCC3)nc3sc(C(=O)O)c(C)c23)cc1	3942
43	CCC(C)C(CO)NCCCn1ccc(NC(=O)OCc2ccccc2)nc1=O (stereo unspecified)	3244
44	CCOC(=O)C1=CCN(S(=O)(=O)c2ccccc2Br)C1c1ccccc1 (stereo unspecified)	6488
45	COc1ccccc1NC(=O)Nc1nc(C(N)C(C)C)cs1 (stereo unspecified)	3096
46	Cc1ccccc1NC(=O)Cc1nc(COC(=O)Cc2cccc(C(F)(F)F)c2)cs1	3377
47	C(=Cc1nc2ccccc2o1)c1ccc2c(c1)OCO2	3633
48	CN1CCN(C(=O)c2cc3c(c(-c4cccc(-c5cccnc5)c4)n2)[C@@H](CCO)N(C(=O)CC2CC2)C3)CC1	6324
49	OC(c1ccccc1)(c1nc(-c2ccccc2)cs1)C(F)(F)F (stereo unspecified)	3358
50	Cc1ccc(S(=O)(=O)N2Cc3cc(N4CCOCC4)ccc3-n3nncc3C2)cc1	6063
51	CC1(C(=O)NCc2cccc(C(F)(F)F)c2)CCN1Cc1cc2ccccc2o1 (stereo unspecified)	3504
52	NC(=O)COc1ccc(S(=O)(=O)N2CCCC2)cc1	3705
53	Cc1ccccc1S(=O)(=O)N(C)C[C@@H]1OCc2cnnn2CCCC(=O)N([C@@H](C)CO)C[C@@H]1C	3686
54	CCOC1=C2CN(S(=O)(=O)c3ccc(C)cc3)[C@H](c3ccccc3)C[C@@H]2N(S(=O)(=O)c2ccc(C)cc2)[C@H](c2cccs2)C1	5412
55	CC(=O)N1C[C@H]2CON(C)[C@H]2C[C@H]1c1cccc(-c2ccc(C#N)cc2)c1	3061
56	CC1(C)CC2(C)OC2C2(C1)N=NC(=Nc1ccccc1)O2 (stereo unspecified)	4352
57	CCNC(=O)C1(C)CCCN(C(=O)CCc2cccs2)C1 (stereo unspecified)	3683
58	Cc1cc2c(=O)[nH]c(N)nc2[nH]1	4074
59	O=C(Nc1nnc([C@H]2C[C@H](O)[C@@H](CO)O2)s1)Nc1ccc(F)cc1F	3838
60	COC(=O)[C@]12CCCCC=C1N(Cc1ccco1)C(=O)[C@H](CC(=O)NCc1cccc(C(F)(F)F)c1)C2	4224
61	O=c1[nH]c2ccccc2n1C1CCN(C(CCc2ccccc2)c2nnnn2Cc2ccccc2)CC1 (stereo unspecified)	5797
62	CC1CCC(NC(=O)c2nn(C)c(=O)c3ccccc23)CC1 (stereo unspecified)	3083
63	CC(C)(C)c1ccccc1NC(=O)Nc1nc(C(N)Cc2ccc(F)cc2)cs1 (stereo unspecified)	2996
64	S=C1SCN(Cc2ccccc2)CN1Cc1ccco1	3942
65	Cc1cccc(C)c1NC(=O)c1ccc2sc([C@H]3C[C@H](O)[C@@H](CO)O3)nc2c1	3838
66	CCNc1ccc(S(=O)(=O)N2CCOCC2)cc1NCC(=O)Nc1cccc(Br)c1	3512
67	CCOC1=C2[C@@H](CN(S(=O)(=O)c3ccc(C)cc3)[C@H]2c2ccccc2Cl)[C@H]2C(=O)N(Cc3ccccc3)C(=O)[C@H]2C1	5264
68	COc1ccc(/C=C2/SC(=S)N(CCC(=O)Nc3cccnc3)C2=O)cc1OC	3500
69	COCCNc1ncnc2c1ncn2[C@H]1CN(Cc2ccc(-c3ccccc3)cc2)C[C@@H](CO)O1	4210
70	C[C@@H]1CN([C@@H](C)CO)C(=O)CCCn2nncc2CO[C@H]1CN(C)S(=O)(=O)c1ccccc1	3997
71	CCNC(=O)C1(C)CCN(C(=O)c2ccc3snnc3c2)C1 (stereo unspecified)	3872
72	CCOC1=C2[C@@H](CN(S(=O)(=O)c3ccc(C)cc3)[C@H]2c2ccccc2Cl)[C@H]2C(=O)NC(=O)[C@H]2C1	6068
73	Cc1c(C(=O)NCc2ccc(C#N)cc2)sc(=O)n1Cc1ccc(C(=O)N(C)C)cc1	4331
74	C[C@@H]1CN([C@H](C)CO)S(=O)(=O)c2ccc(C#Cc3ccccc3F)cc2O[C@@H]1CN(C)C(=O)Cc1ccccc1	3499
75	CCCS(=O)(=O)NC(=O)C1(C)CCN(C(=O)c2cccc(C(F)(F)F)c2)C1 (stereo unspecified)	2712
76	O=C(COC(=O)Cc1ccc(Cl)cc1Cl)NCc1ccccc1	3080
77	N#Cc1c(N)[nH]c(C(=O)c2ccccc2)c1-c1ccc(Cl)cc1	5551
78	CCCCNC(=O)C1(C)CCC(=O)N1CCc1c[nH]c2ccccc12 (stereo unspecified)	6648
79	CC1(C)Cc2cccc(OC(=O)NCCc3ccc(F)cc3)c2O1	5274
80	CC1(C(=O)Nc2ccc(Cl)c(Cl)c2)CCN1C(=O)C1CCCCC1 (stereo unspecified)	3755

Next part:
#	structure	Bead autofluor
81	CCC(=O)N1CCCC1(C)C(=O)Nc1ccc(OC(F)F)cc1 (stereo unspecified)	3572
82	CCCCN(C)c1c(C)nc2ccc(C(=O)NCc3ccc4c(c3)OCO4)cn12	3567
83	CCC1Cc2[nH]c(=S)[nH]c(=O)c2C(c2ccc(Cl)cc2)O1 (stereo unspecified)	4726
84	O=C(NCc1ccc(F)cc1)c1cc(C2CCCCN2S(=O)(=O)c2cccs2)on1 (stereo unspecified)	2905
85	O=C(COC(=O)COc1ccc(Cl)cc1Br)NC1CCCC1	3805
86	C[C@@H]1CN([C@H](C)CO)C(=O)CCCn2nncc2CO[C@H]1CN(C)C(=O)Nc1ccc(N2CCN(C)CC2)cc1	3914
87	OCCN1CCN(c2ncnc3c2ncn3[C@H]2CN(Cc3ccccc3)C[C@@H](CO)O2)CC1	4111
88	CCC(=O)N1CCCC(C)(C(=O)NS(=O)(=O)c2ccccc2Cl)C1 (stereo unspecified)	3759
89	C[C@@H]1CCCCO[C@@H](CN(C)Cc2ccc3c(c2)OCO3)[C@@H](C)CN([C@H](C)CO)C(=O)c2cc(N(C)C)ccc2O1	3700
90	COC(=O)[C@@H]1N=C(c2ccc(OC)cc2)O[C@]12C(=O)N(Cc1ccc(OC)cc1)c1ccccc12	4342
91	CCS(=O)(=O)N1Cc2cc(C(=O)NCC3CC3)nc(-c3cccc(-c4cccnc4)c3)c2[C@@H]1CCO	6333
92	CCCNC(=O)c1cc(C2CCCCN2C(=O)c2cc(C(C)(C)C)nn2C)on1 (stereo unspecified)	3789
93	CC(C)CNC(=O)C1(C)CCCN1Cc1ccccc1OC(F)F (stereo unspecified)	3903
94	CC(C)CC1C(=O)N(Cc2cn(CC3CCCCC3)nn2)CCS(=O)(=O)N1Cc1ccc(-c2cccc(CO)c2)cc1 (stereo unspecified)	3410
95	Cc1ccc2ccccc2c1C(O)c1ncc(-c2ccccc2Cl)[nH]1 (stereo unspecified)	3465
96	CC(=O)NC(c1ccc(F)c(F)c1)c1nc(-c2ccccc2C)cs1 (stereo unspecified)	2880
97	COCCNC(=O)C1(C)CCCN(C(=O)c2cccnc2SC)C1 (stereo unspecified)	2797
98	CCOC(=O)[C@]12CCCC=C1N(Cc1ccco1)C(=O)[C@H](CC(=O)NCc1cccc(C(F)(F)F)c1)C2	4580
99	CNc1ccc2ncc(-c3ccccc3NC(C)=O)n2n1	3987
100	Cc1cccc(Nc2cc(=O)n(C)c(=O)n2C)c1	3702
101	COc1ccccc1-c1ccc2c(c1)O[C@@H](CN(C)C(=O)Nc1cccc(F)c1)[C@H](C)CN([C@H](C)CO)S2(=O)=O	3777
102	Cc1ccccc1C(=O)NC1CC2CCCC(C1)N2Cc1ccccc1Cl (stereo unspecified)	3871
103	Cc1ccc(Nc2nc(NCc3cccs3)nc3ccsc23)c(C)c1	2842
104	C[C@@H]1COc2cc(N3CCN(C)CC3)ccc2S(=O)(=O)N1	5597
105	Cc1ccc(NC(=O)[C@@H]2O[C@H](CO)[C@@H](O)[C@H]2O)cc1C(F)(F)F	4033
106	O=C1NC[C@H](CCCCN2CCN(CC3CCCCC3)C(=O)C2=O)N(CCc2ccccc2)C1=O	5394
107	COc1ccccc1-c1cnc(C(O)c2ccccc2)[nH]1 (stereo unspecified)	3607
108	O=C(CC[C@H]1O[C@@H](n2cnc3c(NC(=O)c4ccccc4)ncnc32)[C@H](O)[C@@H]1O)NCC1CCCCC1	5686

Laid out differently: results already given
#52 NC(=O)COc1ccc(S(=O)(=O)N2CCCC2)cc1
  Bead autofluor = 3705

#33 Cc1cc(NC(=O)Nc2cccc(Cl)c2)no1
  Bead autofluor = 3336

#62 CC1CCC(NC(=O)c2nn(C)c(=O)c3ccccc23)CC1 (stereo unspecified)
  Bead autofluor = 3083

#82 CCCCN(C)c1c(C)nc2ccc(C(=O)NCc3ccc4c(c3)OCO4)cn12
  Bead autofluor = 3567
